# Bioassay records: PubChem BioAssay, Emory University Molecular Libraries Screening Center
# Measles inh – inhibitors of measles virus growth in infected cells; z-score (test concentration not listed); infected Vero cells, GFP fluorescence, 64 h; stronger effect = lower value; hit rate 0.1% among 33,000; AID 745;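 active = z-score under -3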;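 note: score is relative to mean and SD of the compound wells of a plate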
# Active calls of the source: *. These rows are one share of the data, so the mix of outcomes need not match the whole.
SMILES,Measles inh
CCc1cc(C(=O)OC)c(NC(=O)C2CCCCC2C(=O)O)s1 (centres undefined),-0.17
CCN(CC)S(=O)(=O)c1ccc2[nH]c3nc(SCc4ccccc4C)nnc3c2c1,1.21
Cc1cc(=O)oc2c(C(C)O)c(O)ccc12 (centres undefined),0.74
CCOc1ccc(Nc2cc(C(=O)NCCN3CCCC3)c3ccccc3n2)cc1,-0.89
CC1CCCC(NC(=O)c2ccc3c(c2)N(Cc2ccc(F)cc2)C(=O)CS3)C1C (centres undefined),0.77
O=C(C1=C(O)C(=O)N(Cc2cccnc2)C1c1ccccc1)c1cccs1 (centres undefined),-0.59
O=C(c1cc2n(n1)C(C(F)(F)F)CC(c1ccco1)N2)N1CCSCC1 (centres undefined),-0.14
N#CCC(Cc1ccccc1)c1ccc2c(c1)OCO2 (centres undefined),0.05
CC(=O)Nc1cccc(NC(=O)c2c(-c3ccccc3)noc2C)c1,-0.14
N#Cc1ccc(N=c2oc3ccccc3cc2-c2nc3ccccc3[nH]2)cc1,-0.6
CCOC(=O)c1sc2nc(CC(=O)OC)nc(Nc3ccc4c(c3)OCCO4)c2c1C,1.09
COc1ccc(NC(=O)CCn2nc(-c3ccccc3)c3ccccc3c2=O)cc1,-0.39
CC(C)(C)c1cc(C(C)(C)C)c(N)c(C(C)(C)C)c1,-0.51
Cc1cc(C(=O)OCCN=C2NS(=O)(=O)c3ccccc32)c2ccccc2n1,-0.39
Cc1cccc(-n2nc3c(c2NC(=O)c2ccc(Br)o2)CSC3)c1,-0.17
Cc1ccc(C(=O)Nc2ccc(N3CCOCC3)cc2)cc1,0.63
COc1ccc(C2=NN(c3ccccc3)C(c3ccccc3Cl)C2)cc1 (centres undefined),-0.1
COc1cccc(-n2c(=O)c3sccc3n(Cc3cccc([N+](=O)[O-])c3)c2=O)c1,-0.62
Cn1c(OCc2ccccc2)nc2c1c(=O)n(Cc1ccc(Cl)cc1)c(=O)n2C,0.71
O=c1c2ccccc2nc(-c2cccs2)n1-c1cccc2ccccc12,-0.64
Cc1cccc(NC(=O)c2ccccc2C(=O)O)n1,0.99
Cc1cc(C)nc(N2CCN(C(=O)c3ccco3)CC2)n1,2.08
CSCCC(NS(=O)(=O)c1ccccc1F)C(=O)O (centres undefined),0.44
O=C1C(Cl)=C(Nc2ccccc2)C(=O)N1c1ccc(Cl)cc1,1.27
CCOc1cc(C2Nc3ccc4ncccc4c3C3=C2C(=O)CC(c2ccccc2)C3)ccc1O (centres undefined),2.1
COc1ccc(-n2nc(C(=O)N(C)c3ccc(Cl)cc3)c3ccccc3c2=O)cc1,1.28
CCOC(=O)C1CCN(S(=O)(=O)c2ccc3c(c2)CCN3C(=O)C2CCC2)CC1,-1.27
COc1ccc(S(=O)(=O)CCc2nnc(NC(C)=O)s2)cc1,-0.47
O=C1CC(c2ccccc2)=NN1c1ccccc1,-0.47
COc1cccc(C=C2CCCC3=C2Nc2ncnn2C3c2cccc(OC)c2OC)c1OC (centres undefined),-0.09
COc1ccc(S(=O)(=O)Nc2cc(C)c(O)c(S(=O)(=O)c3ccc(OC)cc3)c2C)cc1,1.08
COc1cc(NC(=O)c2cnn3c(C(F)(F)F)cc(-c4ccc(F)cc4)nc23)cc([N+](=O)[O-])c1,0.6
COc1ccc(S(=O)(=O)NCC23CC4CC(CC(C4)C2)C3)cc1OC,-1.21
Cc1nn(S(=O)(=O)c2ccc([N+](=O)[O-])cc2)c(C)c1Sc1ccc(Cl)cc1,-0.79
CC1CCN(C(=O)c2ccc([N+](=O)[O-])cc2NC(=O)c2cccs2)CC1,1.05
Nc1nnc(SCC(=O)NCC(=O)c2ccccc2)s1,-0.55
C=C(C)CC(Nc1ccc(F)cc1)c1ccco1 (centres undefined),0.24
Cc1c(Cl)c(C)c([N+](=O)[O-])c(O)c1C=Nc1ccc(-c2nc3ncccc3o2)cc1,0.68
CC12CCC(C(=O)N3CCN(C(c4ccccc4)c4ccccc4)CC3)(OC1=O)C2(C)C (centres undefined),-0.24
CCCCNC(=O)CN1CCN(Cc2ccccc2Cl)C1=O,1.56

# Some values from the entries so far.
# `Cc1c(Cl)c(C)c([N+](=O)[O-])c(O)c1C=Nc1ccc(-c2nc3ncccc3o2)cc1` @ Measles inh = 0.68
# `Cc1nn(S(=O)(=O)c2ccc([N+](=O)[O-])cc2)c(C)c1Sc1ccc(Cl)cc1` @ Measles inh = -0.79

# Additional compounds.
SMILES,Measles inh
CSc1nsc(SC)c1C(=O)Nc1ccc(C)cc1,1.28
CCn1cnc2sc(C(=O)Nc3cc(C(=O)OC)cc(C(=O)OC)c3)c(C)c2c1=O,0.54
CCn1cc(C(=O)N2CCN(c3cccc(C(F)(F)F)c3)CC2)c2cc(OC)c(OC)cc2c1=O,-0.11
O=C(O)C1CSC(c2ccc(OCc3cccc(F)c3)cc2)N1 (centres undefined),-0.54
COc1ccccc1C(=O)N1c2ccccc2C(C)(c2ccccc2)CC1(C)C (centres undefined),-1.99
COC(=O)c1c(-c2ccccc2)csc1NC(=O)CS(=O)(=O)c1ccccc1,-0.71
COC(=O)c1ccccc1NC(=O)c1cc2ccccc2c(=O)o1,1.27
Cn1c(=O)c2c([nH]c(=O)n2Cc2ccccc2Cl)n(C)c1=O,-0.06
CCCOC(=O)C1=C(C)NC2=C(C(=O)C(C(=O)OC)C(C)C2)C1c1cccc(OCC)c1 (centres undefined),0.58
CCOC(=O)c1sc(=NC(=O)c2ccc(C(=O)OC)cc2)n(C)c1C,1.59
c1ccc(Cn2c3c(c4ccccc42)CCCC3)cc1,0.02
O=C(c1ccccc1)N1CCCc2ccccc21,1.08
Cc1ccc(S(=O)(=O)CCc2nc3ccccc3o2)cc1,0.19
COC(=O)c1cccc(N2C(=O)C3C(C2=O)C2C=CC3C23CC3)c1 (centres undefined),0.18
O=[N+]([O-])c1ccc(NCCNS(=O)(=O)c2ccc(Cl)cc2)c(Cl)c1,0.16
CCOc1ccc(S(=O)(=O)Nc2ccc(OC)cc2OC)c2cccnc12,-1.13
CCn1c(=NC(=O)c2ccc(S(=O)(=O)N3CCCCCC3)cc2)sc2ccccc21,0.03
CCc1ccccc1-n1cnc2cc(C(=O)NCCOC)ccc21,1.31
Cc1ccccc1N=c1oc2ccc(Cl)cc2cc1C(N)=O,-0.39
CCN(CC)CCN=C1NS(=O)(=O)c2ccccc21,0.77

# Already shown: an excerpt of the list.
SMILES,Measles inh
CCOc1cc(C2Nc3ccc4ncccc4c3C3=C2C(=O)CC(c2ccccc2)C3)ccc1O (centres undefined),2.1
COc1ccc(-n2nc(C(=O)N(C)c3ccc(Cl)cc3)c3ccccc3c2=O)cc1,1.28
CCOC(=O)C1CCN(S(=O)(=O)c2ccc3c(c2)CCN3C(=O)C2CCC2)CC1,-1.27
COc1ccc(S(=O)(=O)CCc2nnc(NC(C)=O)s2)cc1,-0.47
O=C1CC(c2ccccc2)=NN1c1ccccc1,-0.47

# New compounds follow
SMILES,Measles inh
CC(=O)c1ccc(NC(=O)c2cc3ccccc3c(=O)o2)cc1,-0.55
CC(=O)C1C(c2ccc(Cl)cc2)C(C#N)(C#N)C2c3ccccc3C=CN12 (centres undefined),0.23
O=[N+]([O-])c1ccc2nc(NCCCNc3ccc(C(F)(F)F)cc3[N+](=O)[O-])sc2c1,1.85
COc1ccc(OC)c2[nH]c(=O)c(CCNC(=O)c3ccccc3Cl)cc12,1.16
CC1CCc2c(sc(NC(=O)CCN3C(=O)C4C5C=CC(C5)C4C3=O)c2C(N)=O)C1 (centres undefined),0.46
CCn1c(N(C)C)nc2c1c(=O)n(C)c(=O)n2C,-0.05
Cc1ccccc1CSC1=NCCN1C(=O)Cc1ccccc1,-0.99
CCc1ccc(OCCSc2nc3ccccc3c(=O)[nH]2)cc1,1.22
Cc1ccc(N2C(=O)CC(NCCc3ccc(F)cc3)C2=O)cc1 (centres undefined),-0.99
CCCNC(=O)CCNC(=O)c1ccc(C(C)(C)C)cc1,-0.22
COc1cc(C(=O)NCCC(=O)N2CCCCC2)cc(OC)c1OC,-0.04
O=C(NCc1ccc2c(c1)OCO2)c1ccc(Cn2c(=S)[nH]c3ccc(N4CCOCC4)cc3c2=O)cc1,1.54
COc1cc2c(cc1NC(=O)c1ccc(C)c([N+](=O)[O-])c1)oc1ccccc12,-0.22
O=C1c2ccc(F)cc2C(=O)N1c1ccc(I)cc1,-2.26
CC1Cc2ccccc2N1S(=O)(=O)c1ccc2c(c1)n(C)c(=O)c(=O)n2C (centres undefined),-0.57
Cc1oc(-c2ccc(Cl)cc2)nc1CCl,-0.76
CCN(CC)CCCNC(=O)c1nn2c(c1Cl)NC(c1ccc(C)cc1)CC2C(F)(F)F (centres undefined),-0.44
COc1ccccc1C1NC(=O)NC(C)=C1C(=O)OCC1CCCCC1 (centres undefined),-0.41
COc1ccc(C=Nc2sc(C)c(C)c2C#N)cc1,1.16
Cc1nc(Nc2ccc(S(N)(=O)=O)cc2)oc1C,-0.08

# A second format for part of the listing above:
> COc1cc2c(cc1NC(=O)c1ccc(C)c([N+](=O)[O-])c1)oc1ccccc12
  Measles inh: -0.22

> O=C1c2ccc(F)cc2C(=O)N1c1ccc(I)cc1
  Measles inh: -2.26

> CC1Cc2ccccc2N1S(=O)(=O)c1ccc2c(c1)n(C)c(=O)c(=O)n2C (centres undefined)
  Measles inh: -0.57

> Cc1oc(-c2ccc(Cl)cc2)nc1CCl
  Measles inh: -0.76

# (more compounds)
SMILES,Measles inh
O=C(CSc1ncccc1C(=O)O)NC1CCCCC1,-0.44
Cc1cc(-n2c(N)c(C(N)=O)sc2=S)ccc1Cl,0.03
Cc1ccc(/C(O)=C2\C(=O)C(=O)N(CCCC(=O)O)C2c2cccc([N+](=O)[O-])c2)cc1 (centres undefined),-0.5
COc1ccc(CC(=O)N2CC(=O)Nc3ccc(Br)cc3C2c2ccc(F)cc2)cc1OC (centres undefined),-2.11
CC(=O)NC12CC3CC(C1)CC(c1ccc([N+](=O)[O-])cc1)(C3)C2,-0.92
COc1cc(C2Nc3ccccc3NC3=C2C(=O)CC(C)(C)C3)cc(I)c1O (centres undefined),0.12
CCc1ccc(OCc2nc(-c3cccc([N+](=O)[O-])c3)no2)cc1,-0.56
O=C(O)CCCC(=O)Nc1cc(Cl)ccc1O,0.05
O=C(O)c1ccc(C(=O)NCc2ccc3c(c2)OCO3)c(C(=O)O)c1,0.13
Cc1cccc(NC(=O)c2ccc(N3CCc4ccccc4C3)c([N+](=O)[O-])c2)c1,2.04
COCCN1C(=O)c2ccccc2C(C(=O)Nc2cccc(C(F)(F)F)c2)C1c1c[nH]c2ccccc12 (centres undefined),-1.31
COc1ccc(C(=O)Nc2c3c(nn2-c2ccc(C)cc2C)CS(=O)(=O)C3)cc1OC,-0.34
Cc1ccc(Nc2c(-c3ccsc3)nc3ccc(Br)cn23)cc1,0.96
O=C1Nc2ccccc2C1=Nc1cccc(S(=O)(=O)Nc2ccccc2)c1,0.48
O=C(CSc1nc2c([nH]c3ccccc32)c(=O)n1-c1ccccc1)N1CCCc2ccccc21,1.18
CCOC(=O)c1c(NC(=O)C(C)(C)C)sc(C(=O)Nc2ccccc2)c1C,-1.19
Cc1ccc2nc(NC(=O)COC(=O)CSc3nc(C)cc(C)n3)sc2c1,-0.35
Cc1ccc(-n2nc3c(c2NC(=O)c2ccc(Cl)cc2)CSC3)c(C)c1,-0.21
O=C1c2cccc3cccc(c23)N1Cc1c(O)ccc2ccccc12,-1.17
O=C(CC1Sc2ccccc2NC1=O)Nc1ccc(N2CCOCC2)cc1 (centres undefined),-0.14
FC(F)Oc1ccc(Br)cc1C1C=C(c2ccc(Cl)cc2)Nc2ncnn21 (centres undefined),-0.21
CC(=O)N1CCCc2cc(S(=O)(=O)Nc3cccc(F)c3)ccc21,0.8
Brc1ccc(-n2cc(-c3ccccc3)c3c(NC4CCCC4)ncnc32)cc1,-0.32
CC1(C)CC(=O)C2=C(C1)c1c(ccc3ncccc13)NC2c1ccc(F)cc1 (centres undefined),1.09
CC1=C(C(=O)OC(C)C)C(c2ccc(C)cc2)C2=C(CC(c3ccccc3)CC2=O)N1 (centres undefined),0.88
Cc1ccc(NC(=O)c2sc3ccccc3c2Cl)c([N+](=O)[O-])c1,0.13
COc1ccc(-c2nc3ccccc3o2)cc1NC(=O)COc1ccc([N+](=O)[O-])cc1,1.67
Cc1ccc(NC(=O)c2sc3ncnc(N4CCCCC4C)c3c2C)cc1F (centres undefined),-0.7
Cc1cc(C)n2nc(SCCC(=O)NCc3ccccc3)nc2n1,0.48
CCOc1ccc(C(=O)Nc2c[nH]c(=O)[nH]c2=O)cc1,-0.85
CCCc1ccc(-c2ccc(C(=O)Nc3ccc(C)cc3)cc2)nc1,0.38
COc1ccc(CNC(=O)c2sc3nc(-c4ccc(OC)cc4)ccc3c2N)cc1,-0.14
O=C(CN1CCN(Cc2ccc(F)cc2)C1=O)NCc1cccs1,-0.49
COc1cccc2cc(C(=O)Nc3cc(C)ccn3)c(=O)oc12,-0.31
COc1ccc(N2C(=O)CCC2(C#N)c2ccc(Br)cc2)cc1 (centres undefined),0.99
COc1ccc(-n2c(=S)[nH]c3cc(C(=O)NCc4ccc(Cl)cc4)ccc3c2=O)cc1,1.65
COc1ccc(CN2CC(C(=O)NCc3ccc4c(c3)OCO4)CC2=O)cc1 (centres undefined),0.88
COc1ccc2nc(NC(=O)C3CCCCC3)sc2c1,-1.53
Cc1ccccc1CSc1nc2c([nH]c3ccccc32)c(=O)n1C,1.49
COc1ccc2[nH]cc(CCNS(=O)(=O)c3ccc(N)cc3)c2c1,2.33
Cn1cc(Cl)c(C(=O)NC2C3CC4CC(C3)CC2C4)n1 (centres undefined),-0.95
CCC(=O)N1CCc2cc(S(=O)(=O)NCCCN3CCOCC3)ccc21,1.27
COC(=O)c1ccccc1NC(=O)COc1ccc(OC)cc1,-0.49
COc1ccccc1NC(=O)C1C(=O)CNC23CCCCC2C1c1ccccc1O3 (centres undefined),0.39
Cc1cccc(N(CC(=O)N2CCCCC2)S(C)(=O)=O)c1C,1.29
COc1ccc(Cl)cc1Nc1nc(-c2ccccc2F)nc2ccccc12,3.74
CCN(CC)S(=O)(=O)c1ccc(-c2csc(=Nc3ccccc3)n2CCc2ccccc2)cc1,-0.32
Cc1ccc(-c2cc(C(F)(F)F)n3ncc(C(=O)NC(C)C)c3n2)cc1,0.96
